UCH37 DUB inh: human UCH37 deubiquitinating enzyme inhibition | Q9Y5K5 | purified proteasome/UCH37, Ub-AMC cleavage fluorescence | inhibition, % (concentration not given with the values) | 0.33% of 330,000 active | AID 588478;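 active = mean of two replicates above 20%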;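 also: 0% = compound-free wells with enzyme and 100% = wells lacking proteasome; stock transfer was 100 nL into about 20 µL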
Target sequence (Q9Y5K5 whole entry, looked up): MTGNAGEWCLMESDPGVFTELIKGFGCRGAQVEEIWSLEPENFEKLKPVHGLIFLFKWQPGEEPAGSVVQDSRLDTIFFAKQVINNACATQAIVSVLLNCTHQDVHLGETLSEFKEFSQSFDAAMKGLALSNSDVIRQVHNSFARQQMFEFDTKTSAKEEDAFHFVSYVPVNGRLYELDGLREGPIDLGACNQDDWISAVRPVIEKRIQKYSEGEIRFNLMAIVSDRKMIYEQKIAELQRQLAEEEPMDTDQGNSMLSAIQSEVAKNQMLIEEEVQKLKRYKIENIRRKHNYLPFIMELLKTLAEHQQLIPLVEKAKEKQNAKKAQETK
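Reagent: Ub-AMC substrate; assay system: Proteasome-associated human UCH37 deubiquitinase; controls: no-proteasome and no-compound wells; read-out: % inhibition of Ub-AMC cleavage fluorescence; timing: 30 min preincubation with enzyme, 25 min cleavage at room temperature; signal: AMC fluorescence from Ub-AMC cleavage, excitation 355 nm, emission 460 nm; buffer or medium: Tris-HCl pH 7.4 plus ovalbumin, ATP-MgCl2, DTT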
HNF4A DNA FP: change in binding of human HNF4 alpha to DNA; P41235; HNF4a-FITC DNA binding, fluorescence polarization, 1 h; activity change, % at 10 µM; 0.3% of 360,000 active; AID 1224865; in the data active = activity change above about 30%, passing the limit was not always enough;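 also: controls were the assay level and a saturating level of protein; the project sought stronger binding though the title names inhibitors; some compounds called inactive have numbers as strong as hits; positive values seem to mean higher polarization but the record does not say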
E coli growth: E. coli growth inhibition | Escherichia coli growth, OD600, 23 h; hits give low values | OD600 absorbance (concentration not given with the values) | 0.21% of 330,000 active;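 active = OD600 absorbance below the run mean of sample wells minus 3.6 SD, in any replicate, cut at about 0.56 in these data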;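 also: stock transfer was 300 nL into about 60 µL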
AF4-AF9 inh: MLL-AF4/AF9 protein interaction inhibition; AID 651704; AlphaScreen, biotin-AF4 peptide binding to FLAG-AF9; inhibition, % at 10 µM; 0.47% of 350,000 active;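 active = every replicate reaching a set inhibition limit, whatever the replicate mean, cut at about 25% in these data; inconclusive = mean inhibition reaches that limit but some replicates miss it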;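 also: 0% = plate neutral control median and 100% = total signal loss; the record names both 10 and 1 µM as test concentration; the first replicate is given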
Target sequence (P42568 whole entry, looked up): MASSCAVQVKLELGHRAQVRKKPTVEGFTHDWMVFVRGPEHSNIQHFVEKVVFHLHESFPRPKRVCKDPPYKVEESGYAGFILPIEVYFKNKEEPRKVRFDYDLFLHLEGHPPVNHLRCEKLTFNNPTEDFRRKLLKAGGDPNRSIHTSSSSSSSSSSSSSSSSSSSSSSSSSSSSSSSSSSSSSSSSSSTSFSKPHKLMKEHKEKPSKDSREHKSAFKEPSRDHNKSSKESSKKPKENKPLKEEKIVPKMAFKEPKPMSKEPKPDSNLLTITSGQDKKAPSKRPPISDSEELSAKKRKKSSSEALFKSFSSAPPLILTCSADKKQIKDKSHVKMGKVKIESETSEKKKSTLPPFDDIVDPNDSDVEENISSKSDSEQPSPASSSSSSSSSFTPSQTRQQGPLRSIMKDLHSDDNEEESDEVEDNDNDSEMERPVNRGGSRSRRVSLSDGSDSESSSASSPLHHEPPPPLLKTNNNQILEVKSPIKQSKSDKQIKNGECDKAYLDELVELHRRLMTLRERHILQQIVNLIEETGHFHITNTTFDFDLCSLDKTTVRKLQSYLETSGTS
RanGTP-Impb inh: disruptors of Ran-importin-beta complex formation – biochemical, FRET, CFP-Ran, YFP-importin-beta, homogeneous, primary screen; inhibition, % (no concentration beside the values); 1.1% of 300,000 active; cell-free CFP-Ran/YFP-importin-beta FRET ratio; AID 2216;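 active = most replicates above 15%; inconclusive = exactly half above 15%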;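 also: 0% = DMSO wells and 100% = Ran loaded with GDP instead of GTP; wells of about 40 µL received 100 nL stock; the first replicate is given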
FGF22 binding: shifts melting point of recombinant human FGF22; Q9HCT0; 1.5% of 340,000 active; calls only at 9.99 µM; AID 651658; recombinant FGF22 thermal shift, SYPRO orange fluorescence; percent of sucrose octasulfate shift, DMSO zero;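 active = melting point raised past a set limit in the mean and every replicate; inconclusive = no clear call; three in four hits are not shown here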
Target sequence (Q9HCT0 whole entry, looked up): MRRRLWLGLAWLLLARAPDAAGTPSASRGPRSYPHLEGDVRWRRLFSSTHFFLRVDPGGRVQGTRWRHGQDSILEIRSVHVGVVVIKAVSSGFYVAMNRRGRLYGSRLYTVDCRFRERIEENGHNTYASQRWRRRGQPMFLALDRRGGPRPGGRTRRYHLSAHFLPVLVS
Vif TR-FRET: HIV-1 Vif–A3G interaction blockers – biochemical, TR-FRET, GST-Vif 1-94, biotin-A3G peptide, dose response retest, primary screen (AID 1117319) | TR-FRET GST-Vif / biotin-A3G peptide binding; higher % means a stronger effect; test concentration not given here; strong numbers were not always called active | 0.57% of 260,000 active | inhibition, %, or IC50 in µM where a hit was titrated;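 active = above the screen mean plus three standard deviations and confirmed in dose response; inconclusive = results disagree or hit not tested in dose response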;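 also: Vif residues 1-94 fused to GST binding biotinylated APOBEC3G peptide 110-148; 0% = full assay without inhibitor and 100% = GST in place of GST-Vif; retest series ran down from 100 µM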
* = called active by the depositor; i = inactive; u = inconclusive; x = no result given; & = joins results of further samples.

Every second line gives: UCH37 DUB inh, HNF4A DNA FP, E coli growth, AF4-AF9 inh, RanGTP-Impb inh, FGF22 binding, Vif TR-FRET
1: C(=N\Nc1ccccn1)/c1c[nH]c2ccccc12
 : x, 4.3, x, 17, 4.3, i, 1%
2: CCCN1C(=O)C2(/C(=C(\O)c3ccc4c(c3)OCCO4)C(=O)C(=O)N2CCCOC)c2ccccc21 (centres undefined)
 : 13, 1.1, 0.7, 5.3, x, i, -4%
3: Cc1c(NS(=O)(=O)c2ccc(C(=O)N(C)Cc3cccc(Cl)c3Cl)cc2)c(=O)n(-c2ccccc2)n1C
 : x, -1.5, x, 0.0, x, i, x
4: COc1ccc(Nc2nc(=O)[nH]nc2C)cc1
 : 2.6, 2.4, 0.69, 0.9, 9.5, i, 2%
5: CCC(CC)CN1CCN=C1N(C)C
 : 3.7, 4.7, 0.71, 2.2, -1.7, i, x
6: Cc1cc(C)cc(NC(=S)N2CCC(N(C)CC3CCCO3)CC2)c1 (centres undefined)
 : 3.7, -1.9, 0.69, -2.9, -2.0, i, -7%
7: CCOc1ccc(CCNC(=O)COC(=O)Cc2c[nH]c3ccccc23)cc1OCC
 : 0.9, 5.7, 0.69, 1.1, x, i, 2%
8: Cc1cc(C)nc(Nc2nc3ccccc3o2)n1
 : 1.8, 0.5, 0.65, -2.2, -2.2, i, 3%
9: O=C(Nc1nc2ccccc2[nH]1)C1CCN(C(=O)c2ccc(F)cc2)CC1
 : -3.5, 0.7, 0.63, 0.2, 0.6, i, 6%
10: CCN(CC)S(=O)(=O)c1ccc(OC)c(NC(=O)CSc2ccccc2)c1
 : 5.1, -0.6, 0.72, x, 0.1, x, 2%
11: CCC(C(=O)O/N=C(\N)c1cccc(C)c1)c1ccccc1 (centres undefined)
 : 2.4, 1.4, 0.75, x, u, x, 0%
12: COc1ccccc1C(=O)NCCC(=O)Nc1nc2ccccc2[nH]1
 : -0.1, 4.1, 0.59, 1.8, -0.4, i, 8%
13: O=C(COc1ccc(Cl)cc1)Nc1ccc(Cc2ccncc2)cc1
 : 0.9, 11, 0.58, x, 2.8, x, x
14: COc1cccc(CNC(=O)c2ccc3c(c2)S(=O)(=O)N=C2CCCCCN23)c1
 : 4.9, 5.3, 0.71, -0.4, 0.7, i, x
15: COC(=O)c1ccc(NC(=S)Nc2ccc3ccccc3c2)cc1
 : 2.2, 1.9, 0.68, x, 5.3, x, u
16: Cc1nn(CC(=O)Nc2ccc(N3CCOCC3)cc2)c(C)c1Br
 : 2.4, -3.7, 0.72, -0.1, 5.6, i, x
17: Cc1ccc(OCC(=O)Nc2ccc(NC(=O)c3cccs3)cc2)c(C)c1
 : -20, 1.2, 0.71, -6.0, -0.4, i, x
18: Cn1cccc1C(=O)NNC(=O)COc1ccccc1Cl
 : -0.9, 1.0, 0.69, -14, x, i, 2%
19: CCC(C)[C@H](NC(=O)N1CCN(c2cccc(C(F)(F)F)c2)CC1)C(=O)OC (some centres undefined)
 : 3.0, -0.2, 0.73, 8.0, -2.6, i, 0%
20: CC(/C=N/NC(=O)c1ccccc1C)=C\c1ccccc1
 : x, 1.9, x, 0.7, -2.4, i, x
21: O=C(Cc1cccs1)Nc1ccc(F)cc1
 : -0.2, 0.1, 0.72, -3.6, 3.1, i, x
22: CCN(C(=O)COc1ccc(C)nc1[N+](=O)[O-])C1CCS(=O)(=O)C1 (centres undefined)
 : 3.2, 1.6, 0.69, x, 0.3, x, u
23: COCCN(Cc1ccc(C)cc1)C(=O)[C@H]1O[C@@H](n2ccc(N)nc2=O)[C@H](O)[C@@H]1O
 : x, 0.4, x, -2.4, x, i, x
24: NS(=O)(=O)c1ccc(NC(=O)c2c(F)cccc2Cl)cc1
 : 2.3, -1.5, 0.66, -2.2, -2.5, i, -9%
25: O=C(CSc1nc2c(c(=O)[nH]1)CCC2)Nc1cccc(F)c1
 : 5.4, -2.1, 0.7, 0.8, 0.5, i, x
26: COc1ccc(N2CCN(C(c3ccccc3)c3nnnn3C(C)(C)C)CC2)cc1 (centres undefined)
 : x, 2.1, x, 9.4, x, i, x
27: Cc1ccc(NC(=O)CSCc2ccco2)cc1
 : 2.0, -1.0, 0.67, 2.0, u, i, 7%
28: CCC(CC)C(=O)NCCc1cc2ccc(OC)cc2[nH]c1=O
 : -1.8, -1.4, 0.7, x, -0.7, x, -2%
29: Cn1c(=O)[nH]c(=O)c2c1nc(N1CCOCC1)n2CCSc1nc2ccccc2[nH]1
 : 6.0, -0.7, 0.73, x, -0.2, x, 3%
30: O=C1CN(S(=O)(=O)c2ccccc2C(F)(F)F)CCN1
 : 3.3, -0.6, 0.71, -15, 2.3, i, -5%

New compounds follow:
Every second line gives: UCH37 DUB inh, HNF4A DNA FP, E coli growth, AF4-AF9 inh, RanGTP-Impb inh, FGF22 binding, Vif TR-FRET
31: O=C(O)c1ccc(COc2ccccc2/C=C2\NC(=O)N(Cc3ccccc3F)C2=O)cc1
 : -0.2, 1.8, 0.62, 0.0, -3.2, i, -2%
32: Cc1cc(=O)oc2cc(OCC(=O)NCCCN3CCCC3=O)c(Cl)cc12
 : -11, 0.5, 0.67, 1.2, 1.7, i, x
33: c1ccc(-c2noc(CN3CCN(c4ccccc4)CC3)n2)cc1
 : 2.0, 5.2, 0.71, 0.9, 1.9, i, -1%
34: COc1ccc(NC2=Nc3ccccc3CC2)cc1
 : 3.9, -5.1, 0.65, x, -1.9, x, 32%
35: COc1ccc(-c2nsc3c(N4CCCC4)ncnc23)cc1
 : -32, 0.6, 0.72, x, -4.1, x, -4%
36: C/C(=N\NC(=O)CCc1ccc(S(=O)(=O)N2CCOCC2)cc1)c1ccccc1Cl
 : x, -3.5, x, 4.8, 1.2, i, 3%
37: Cc1cc(C(=O)CSc2nnc(C3CC3)n2C2CC2)c(C)n1C(C)C
 : 5.7, 0.6, 0.7, u, x, i, -3%
38: COc1ccc(C(=O)N2CCN(Cc3ccccc3[N+](=O)[O-])CC2)cc1
 : 2.1, -1.8, 0.68, 2.9, u, i, x
39: CSCc1c(C(=O)NCCc2ccccn2)oc2ccccc12
 : 3.8, 2.2, 0.66, -1.7, 1.1, i, x
40: COc1ccc(C(NC(=O)CN2C(=O)NC3(CCc4ccccc43)C2=O)c2ccccc2)cc1 (centres undefined)
 : 4.4, -0.1, 0.69, 3.0, x, i, -3%
41: O=C(Nc1ccc([N+](=O)[O-])cc1)Nc1ccc(Cl)cc1F
 : 3.6, -0.4, 0.65, -3.3, -4.1, i, u
42: O=C(NC1(C(F)(F)F)NC(=O)N(c2ccccc2)C1=O)c1cccs1 (centres undefined)
 : 1.3, -0.5, 0.66, x, -0.5, x, 0%
43: COc1cccc(C(C(=O)NC2CCCC2)N(C(=O)c2ccco2)c2ccc(C(C)=O)cc2)c1OC (centres undefined)
 : 4.4, 3.4, 0.69, -2.5, 3.9, i, -3%
44: O=C(NCc1n[nH]c(=S)n1-c1ccccc1)c1cccs1
 : 2.5, -3.1, 0.7, 0.6, 7.8, i, 12%
45: S=C1NC(c2ccccc2)N2C(=S)NC(c3ccccc3)N12 (centres undefined)
 : 4.8, -1.6, 0.7, x, -2.6, x, 2%
46: Cc1cccn2c(=O)cc(COC(=O)C(C)Oc3ccccc3)nc12 (centres undefined)
 : -1.9, -4.2, 0.72, -4.0, x, i, x
47: COCCN(C(=O)CSc1nn(-c2ccc(F)cc2)c(=S)s1)c1c(N)n(CC(C)C)c(=O)[nH]c1=O
 : -3.1, 0.0, 0.66, 4.7, x, i, x
48: Cc1cccc(CS(=O)(=O)Cc2ccc(C(=O)NC3CCCCCC3)o2)c1
 : 4.1, -0.8, 0.72, -1.3, 1.3, i, x
49: CN(NC(=O)c1ccc(Cl)cc1Cl)C1=NS(=O)(=O)c2ccccc21
 : -0.4, 4.5, 0.67, -4.0, -0.5, i, x
50: O=C(NCc1ccccc1F)C(=O)NCC1CCCN1S(=O)(=O)c1ccccc1 (centres undefined)
 : 1.8, 0.3, 0.63, 0.2, 2.3, i, -4%
51: CC1COc2c3ccccc3nn21 (centres undefined)
 : x, -2.2, x, -1.1, x, i, x
52: Cc1occc1C(=O)Nc1ccc(S(=O)(=O)N2CCN(C)CC2)cc1
 : -0.5, -3.4, 0.73, x, 1.5, x, 4%
53: C=CCn1c2ccccc2c2nnc(SCC(=O)NC(C(=O)OC)C(C)C)nc21 (centres undefined)
 : 9.1, -4.2, 0.72, x, u, x, -11%&-2%
54: CCC(C)NC(=O)C1CCN(S(=O)(=O)c2ccc3c(c2)CC(C)N3C(C)=O)CC1 (centres undefined)
 : 4.1, -0.5, 0.78, 2.0, 4.4, i, x
55: Cc1ccc(Nc2cnn(C34CC5CC(CC(CC(=O)O)(C5)C3)C4)c(=O)c2Cl)cc1
 : 10.0, -2.8, 0.68, -3.9, -1.2, i, 0%
56: Cn1c(=O)c2c(nc(N3CCOCC3)n2CCCNC2=NCCC2)n(C)c1=O
 : -1.1, -2.7, 0.75, x, 2.3, x, -3%
57: CC[n+]1c(/C=C/Nc2ccccc2)oc2ccccc21
 : 8.9, 29, 0.66, x, -5.1, x, 8%
58: CCCCCCCCn1c(=O)c(C(=O)OC)c(N)c2ccccc21
 : -2.1, 2.0, 0.63, -5.3, -1.2, i, -4%
59: O=C(Nc1cccc(C(F)(F)F)c1)c1cc2ncc(Br)cn2n1
 : -9.9, -4.3, 0.65, 5.3, -0.7, i, 3%
60: Cc1ccc(OCC(=O)N(C)CC(=O)Nc2ccc(F)cc2)c([N+](=O)[O-])n1
 : 6.8, 1.0, 0.7, 1.7, 2.7, i, 5%

(next part)
Every second line gives: UCH37 DUB inh, HNF4A DNA FP, E coli growth, AF4-AF9 inh, RanGTP-Impb inh, FGF22 binding, Vif TR-FRET
61: O=C(NNc1nc2c(F)cccc2s1)c1ccccc1
 : 2.2, -2.1, 0.63, 0.0, u, i, 15%
62: O=C(O)C(Cc1ccccc1)Nc1ccc([N+](=O)[O-])cc1[N+](=O)[O-] (centres undefined)
 : x, 3.7, x, 3.6, -6.5, i, x
63: COc1ccc2c(-c3ccccc3)cc(SCC(=O)NC3CCS(=O)(=O)C3)nc2c1 (centres undefined)
 : -6.6, -0.8, 0.7, -0.6, 0.9, x, x
64: Cc1ccc(NC(=O)CSc2nccn2Cc2ccccc2)cc1C
 : 6.1, 0.1, 0.67, x, 3.4, x, 1%
65: CCSc1ccc2nnc(-c3ccc(F)cc3)n2n1
 : -18, 2.5, 0.67, 4.5, -18, i, 1%
66: CS(=O)(=O)Nc1ccc(Oc2ncccn2)cc1
 : 2.2, 5.9, 0.64, 0.1, -5.5, i, x
67: N#CC(=C1NC(=O)c2ccccc21)c1nc2ccccc2n1CCO
 : x, 4.5, x, 1.1, x, i, 12%
68: C/C(CC(=O)Nc1ccc(N(C)C)cc1)=N\NC(=O)c1ccccc1O
 : x, -2.4, x, 7.4, 0.5, i, x
69: CCOC(=O)N1CCN(CC(=O)c2ccc3c(c2)CCN3C(C)=O)CC1
 : 1.7, -0.3, 0.7, 0.7, -0.1, i, 65%
70: O=C1CCN(Cc2ccccc2)S(=O)(=O)c2ccc(F)cc21
 : 0.2, -6.9, x, 1.6, x, i, x
71: Cc1ccc(-c2cc(C(=O)NC3CCCC3)no2)cc1
 : -0.7, 1.9, 0.69, 1.3, 0.2, i, x

Not all compounds are listed. The share of hits here may be higher or lower than overall.
